HIV TAR-Tat = HIV-1 TAR-Tat binding disruption; 0.6% of 100,000 active; z-score (no concentration beside the values); HIV-1 TAR RNA, Tat peptide displacement FRET; hits give high values;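 also: score is relative to mean and SD of negative controls; some compounds called inactive have numbers as strong as hits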
CDC25B CDK2 inh = human CDC25B-CDK2/CyclinA binding inhibition; P30305+P24941; AID 1259370; z-score (no concentration beside the values); HTRF CDC25B-CDK2/CyclinA binding, anti-His/anti-Flag; hits give high values; 0.72% of 94,000 active;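 also: score is relative to mean and SD of negative controls; strong numbers were not always called active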
Active calls of the source: *; nt = not tested or not shown.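 The calls were made as follows: active = z-score from 3 up in half or more of its runs; inactive = the rest.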 Not a hit list. About 0.89% of those tested had a hit in this group.

The line under a structure holds: CDC25B CDK2 inh, HIV TAR-Tat
CCOC(=O)c1c(NC(=O)C2CC(=O)OC23CCCCC3)sc2c1CCCC2 (stereo not drawn)
    -1.9, nt
O=C(NCC(c1ccco1)S(=O)(=O)c1cccs1)c1ccco1 (stereo not drawn)
    nt, 2.3
c1ccc2c(CNCc3ccc4c(c3)OCO4)c[nH]c2c1
    0.12, nt
O=C(CCCn1c(=S)[nH]c2cc3c(cc2c1=O)OCO3)N1CCN(C(=O)c2ccco2)CC1
    -1.6, nt
CCCn1cc(S(=O)(=O)c2ccccc2)c(=O)c2cc(F)ccc21
    -2.6, -0.11
CCCOc1cccc(C2c3c(oc4cc(C)c(C)cc4c3=O)C(=O)N2CCCN(C)C)c1 (stereo not drawn)
    -2.3, 0.3
Cc1oc2ncnc(N3CCC(C(N)=O)CC3)c2c1C(=O)O
    -0.01, 1.1
Cc1ncc(CSc2nc(C(C)(C)C)cs2)c(CO)c1O
    -2.3, nt
CC(=O)N1N=C(c2ccco2)OC1c1ccc(Br)cc1 (stereo not drawn)
    nt, 15
COc1ccc(NS(=O)(=O)c2ccc3c(c2)NC(=O)C(C)CS3)c(OC)c1 (stereo not drawn)
    nt, 0.27
COc1ccc(-n2nnc(C(N)=O)c2N)cc1
    -1.3, 0.15
O=C(NCC(c1ccc2c(c1)OCO2)N1CCOCC1)c1cccs1 (stereo not drawn)
    nt, 1
CCOc1cccc(-c2nnc(N)s2)c1
    -1.4, 2.5
COCc1c(C(C)C)nc(C(C)C)c(/C=C/[C@@H](O)C[C@@H](O)CC(=O)O)c1-c1ccc(F)cc1
    nt, 2.3
CCC1CN(C(=O)Nc2cccc3c2CCCC3)c2ccccc2O1 (stereo not drawn)
    nt, 3.2
Cc1noc(C)c1C(=O)O/N=C(/Cc1ccccc1)C(F)(F)F
    -1.9, nt
O=C(CSc1nc(=O)n(CCN2CCOCC2)c2c1CCC2)N1CCc2ccccc21
    nt, 2.4
COC(=O)Cn1c(C(=O)OC)ccc1-c1ccco1
    -0.28, -9.6
CN(C)c1cc(-c2cc(OCC(F)(F)F)ccc2OCC(F)(F)F)oc(=O)c1Cl
    -0.13, nt
O=c1[nH]n(-c2ccc(S(=O)(=O)N3CCN(c4ccccc4F)CC3)cc2)c(=O)c2ccccc12
    -2.6, 2.6
FC(F)(F)c1ccc(OCc2ccccc2)cc1
    0.44, nt
O=C(Cn1nc2c(=O)n(-c3cccc(F)c3)ccn2c1=O)c1ccc(F)cc1
    nt, -0.03
O=C(Nc1ccncc1)C1c2ccccc2Oc2ccccc21
    -0.91, -0.1
CCc1cccc(Nc2c3c(nc4ncnn24)CCCC3)c1
    nt, 2.2
NC(=O)c1nc(-c2cccc(F)c2)nc2c1[nH]c(=O)n2C1CCCCC1
    nt, 0.18
CCN1CCN(c2ncc3c(n2)CCN(Cc2cc(F)cc(F)c2)C3)CC1
    nt, 0.91
Cc1ccc(C(=O)Nc2nnc3n2CCS3)cc1
    nt, 0.76
Cc1nc(S(=O)(=O)Nc2ccc(F)c(Cl)c2)cn1C
    nt, 0.3
COC(=O)c1cc(S(=O)(=O)NCc2ccc3c(c2)OCO3)cn1C
    -2.1, 1
CCN1CCN(C(=O)c2sc3nc4n(c(=O)c3c2C)CCCCC4)CC1
    nt, 2
O=C(Nc1ccccc1)Nc1nc2c(s1)CN(S(=O)(=O)c1ccccc1)CC2
    nt, 0.82
Cc1ccc(Cn2c(NCCN(C)C)nc3c2c(=O)[nH]c(=O)n3C)cc1
    -2.3, 0.43
O=C(CSc1ccccc1)Nc1nc(-c2cccs2)cs1
    nt, -0.26
O=S1(=O)N=C(N2CCN(Cc3ccccc3)CC2)c2ccccc21
    -0.14, nt
CSCCC1NC(=S)N(Cc2ccccc2)C1=O (stereo not drawn)
    -0.4, nt
CCOC(=O)CSC1=C(C#N)C(=O)NC(c2ccc(OC)cc2)S1 (stereo not drawn)
    -1.2, nt
CCCSc1ccc([N+](=O)[O-])c(N=C(NC(=O)OC)SC)c1
    -1.1, nt
OC[C@H]1NC[C@@H](O)[C@@H]1O
    -1.7, nt
Cn1c(=O)oc2cc(S(=O)(=O)Nc3cccc(-c4cc5cc(F)ccc5[nH]4)c3)ccc21
    nt, -0.11
Cc1ccccc1Cn1c(NCC2CCCO2)nc2c1c(=O)n(C)c(=O)n2C (stereo not drawn)
    -1.2, 1.4
Cn1c(CCc2cccc(NS(=O)(=O)c3ccc(F)cc3)c2)nc2ccccc21
    nt, 0.3
COc1ccc(-n2ccn3c(CCC(=O)O)nnc3c2=O)cc1
    -2.7, 0.39
CC1(NO)CCCC/C1=N/O (stereo not drawn)
    -1.3, nt
Nc1nc(=S)n2c(n1)sc1ccccc12
    1.2, nt
O=C1N(Cc2ccc(F)cc2)CCN1C1CCN(S(=O)(=O)c2cccc3nsnc23)CC1
    nt, 0.77
Cc1cc(Cl)ccc1N1CC(O)=C(c2nc3ccccc3[nH]2)C1=N
    -2.2, 0.09
CCOC(=O)CCCCC(=O)c1[nH]c(=O)[nH]c1C[n+]1ccccc1
    -2, nt
Cc1ncc(CO)c2cc(C(=O)Nc3ccc(F)cc3F)c(=O)oc12
    -0.91, -0.58
O=C(Cn1ncn2c(cc3cc(F)ccc32)c1=O)NCc1ccc(F)cc1
    -1.7, -0.4
Cc1nnsc1C(=O)NNS(C)(=O)=O
    -1.6, nt
O=C(Cn1ncn2c(cc3ccccc32)c1=O)NC1CC1
    0.84, -0.05
Cc1nnc2sc(SCC(=O)N3CCCCC3)nn2c1=O
    nt, 0.79
CN(C)c1nc(NCc2ccccc2Cl)c2cnn(C)c2n1
    nt, 1.2
Cc1nc(CNC(=O)[C@H]2CSCN2C(=O)Nc2ccc(Br)cc2F)cs1
    nt, 1.2
C=CC(=O)n1nccc1-c1sc(COc2cccc(Cl)c2)nc1C
    -0.01, nt
CCOC(=O)c1nc(Nc2ccc(F)cc2Cl)c2ccccc2n1
    nt, 0.46
O=S(=O)(c1ccc(F)cc1)N1CCCC(CO)C1 (stereo not drawn)
    -0.66, 0.11
CCOC(=O)c1c(NC(=O)Cn2cnc([N+](=O)[O-])n2)sc2c1CCC2
    nt, 1.2
O=S(=O)(Nc1ccc(F)cc1)c1ccc(-c2ccc(Cl)nn2)s1
    nt, 1.6
COCCCN1C(=O)c2[nH]nc(-c3ccccc3O)c2C1c1cccc(O)c1 (stereo not drawn)
    -2, -0.56

Later entries
The line under a structure holds: CDC25B CDK2 inh, HIV TAR-Tat
O=S(=O)(NC1CCCCC1)c1ccc(S(=O)(=O)N2CCN(c3ncccn3)CC2)cc1
    -1.4, 1.8
COc1ccc(S(=O)(=O)NCC(=O)O)cc1
    -1.9, 0.77
Cc1c(C2OCCn3c(-c4ccccc4)c4c(=O)n(C)c(=O)n(C)c4c32)c(=O)n(-c2ccccc2)n1C (stereo not drawn)
    -1.9, 1.2
CCOC(=O)N1CCC(NC(=O)C(=O)Nc2ccc3nc4n(c(=O)c3c2)CCCCC4)CC1
    -1.7, 2.7
CCCNC(=O)Cn1ncc2c3ccccc3n(CCC)c2c1=O
    nt, 1.7
Cc1ccc2ncc(C(=O)NC(C)c3ccccc3)c(=O)n2c1 (stereo not drawn)
    -2.5, 0.81
Cc1ccc2oc(SCc3noc(CCC(=O)Nc4cc(C)on4)n3)nc2c1
    nt, 1.4
Cc1cccn2c(Nc3ccccc3)c(-c3ccccn3)nc12
    0.03, nt
COc1cc(-c2oc3cc(O)cc(O)c3c(=O)c2OC[C@@H]2OC(O[C@@H]3O[C@@H](C)[C@H](O)[C@@H](O)[C@H]3O)[C@@H](O)[C@H](O)[C@@H]2O)ccc1O (stereo partly drawn)
    nt, 5
CC(=O)N1c2nc(-c3ccc(F)cc3)nn2C2(CCCCC2)[C@@H]2CCCC[C@@H]21
    -0.91, 1.7
COc1ccc(NS(=O)(=O)c2c(C)nc3scc(C)n3c2=O)cc1OC
    -1.9, 2
CC1CCN(c2nnc(NC(=O)Nc3ccc(Cl)cc3)s2)CC1
    0.03, 0.98
Fc1ccc(-c2nnc3sc(-c4ccccn4)nn23)cc1
    -2.1, 1.1
COc1ccc(Br)cc1CNCCSc1nnnn1C
    -0.33, -0.32
CC(C)CC(=O)N1CCC(C(=O)NCCc2csc(-c3cccs3)n2)CC1
    nt, -0.1
CCOCCCNc1cc(N2CCN(C)CC2)c2noc3c2c1C(=O)c1ccccc1-3
    1.1, 0.85
CSCCC(Nc1ncnc2c1oc1ccccc12)C(=O)O (stereo not drawn)
    0.19, 2.4
C#CCN1C(=O)C(O)(CC(=O)c2cc(OC)ccc2OC)c2ccccc21 (stereo not drawn)
    1.7, 1.1
CCOC(=O)COc1cccc(C(C)=O)c1
    -1, nt
COc1ccccc1N1CCN(c2nc3ccccc3c3nncn23)CC1
    nt, 1.5
CCCOC(=O)C(C)Oc1ccc2c(=O)c(Oc3ccc(CC)cc3)coc2c1 (stereo not drawn)
    -1.3, nt
O=C1CC(c2ccc(F)cc2)=Nc2ccccc2N1
    nt, 0.66
O=C(Sc1ccc(Cl)cc1)c1csc(-c2cccnc2)n1
    -0.8, nt
Cc1cc(NC(=O)c2sc3ncnc(N4CCN(C)CC4)c3c2C)no1
    nt, 0.86
Cn1c(O)c(C2=Nc3ccccc3SC(c3ccc(Cl)cc3)C2)c(=O)[nH]c1=O (stereo not drawn)
    -2.3, 2.1
CC(C)CCNC(=O)c1cc2c(s1)-c1ccsc1CC2
    nt, 0.55
O=C(c1ccccc1)c1cn(Cc2ccc(F)cc2)c2cc3c(cc2c1=O)OCO3
    0.13, 0.38
O=C(Nc1nc(-c2cc3ccccc3oc2=O)cs1)c1cc(=O)c2ccccc2o1
    -1.8, nt
Cc1cc(C)c(-c2c(Nc3cccc(Cl)c3C)c(=O)c2=O)cc1C
    nt, 0.48
CC(C)CC(C(=O)N1CCOCC1)N1Cc2ccccc2C1=O (stereo not drawn)
    nt, 1.2

7 entries from above in a different format:
SMILES | CDC25B CDK2 inh | HIV TAR-Tat
O=C(Sc1ccc(Cl)cc1)c1csc(-c2cccnc2)n1 | -0.8 | nt
Cc1cc(NC(=O)c2sc3ncnc(N4CCN(C)CC4)c3c2C)no1 | nt | 0.86
Cn1c(O)c(C2=Nc3ccccc3SC(c3ccc(Cl)cc3)C2)c(=O)[nH]c1=O (stereo not drawn) | -2.3 | 2.1
CC(C)CCNC(=O)c1cc2c(s1)-c1ccsc1CC2 | nt | 0.55
O=C(c1ccccc1)c1cn(Cc2ccc(F)cc2)c2cc3c(cc2c1=O)OCO3 | 0.13 | 0.38
O=C(Nc1nc(-c2cc3ccccc3oc2=O)cs1)c1cc(=O)c2ccccc2o1 | -1.8 | nt
Cc1cc(C)c(-c2c(Nc3cccc(Cl)c3C)c(=O)c2=O)cc1C | nt | 0.48

Following part:
The line under a structure holds: CDC25B CDK2 inh, HIV TAR-Tat
CCCCN(CC)C(=O)C1c2ccccc2C(=O)N(C)C1c1cn(C)c2ccccc12 (stereo not drawn)
    -2.3, nt
COc1ccc(OC)c(NC(=O)NCCc2csc3c2CCC(C)C3)c1 (stereo not drawn)
    nt, 0.6
COC(=O)CSc1ccc2nnc(-c3ccc(C)cc3)n2n1
    -1.8, nt
Cc1ccc(Cl)cc1N1CCN(S(=O)(=O)c2ccc(-c3ccc(=O)[nH]n3)s2)CC1
    nt, -2
CCCCCn1c(C2CC(=O)N(c3ccccc3F)C2)nc2ccccc21 (stereo not drawn)
    0.16, 1.9
O=C(CCCn1ncn2c(cc3occc32)c1=O)NCc1ccccn1
    -1.2, 0.37
NS(=O)(=O)c1ccc(CCNC2CC(=O)N(c3ccc(Br)cc3)C2=O)cc1 (stereo not drawn)
    -1.2, -0.42
Cc1cc(-c2ccc(C)c(S(=O)(=O)NCc3cccs3)c2)on1
    nt, 1.1
O=C1c2cccnc2C(=O)N1Cc1ccc(F)cc1S(=O)(=O)N1CCOc2ccc(Cl)cc21
    nt, 0.86
Clc1ccc(-c2cn3ccccc3n2)cc1
    -2.5, nt
COc1cccc(C2CC(c3ccc(C(C)C)cc3)n3nc(N)nc3N2)c1 (stereo not drawn)
    0, 2.4
CCN(CC)CC#Cc1cccc(C)c1
    -1.5, 1.4
C(=C\Sc1ccccn1)/Sc1ccccn1
    -1.4, nt
O=c1c(-c2ccc(O)cc2)coc2cc(O)cc(O)c12
    -2.5, 3.1
CCN1C(=O)C(=Cc2c(O)n(CC)c(=O)n(CC)c2=O)C(=O)N(CC)C1=O
    0.19, nt
Clc1ccc2[nH]c(-c3cccs3)cc2c1
    0.11, -2.3
Cc1csc2ncc(C(=O)N(Cc3ccccc3)Cc3ccccc3)c(=O)n12
    -0.55, 0.82
CNC(=O)c1ccc(Cn2c(SCc3ccc(F)cc3)nc3ccncc32)cc1
    0.47, -0.59
Cc1ccc(NS(=O)(=O)c2cc3[nH]c4c(c3cc2C)C(=O)CC(C)(C)C4)cc1C
    nt, 1.1
O=C(C1CCN(c2ccc(Cl)cc2)C1=O)N1CCN(c2ccc(F)cc2)CC1 (stereo not drawn)
    nt, 0.6
O=C(CCCN1C(=O)c2cccnc2Oc2ccc(Cl)cc21)NCc1ccccn1
    nt, 0.35
CC(=O)Nc1sc2c(c1C(=O)O)CC(C)(C)OC2
    -1.6, 0.28
O=C(C1=Cc2cc(Br)ccc2OC=C1)N1CCOCC1
    -1.4, 0.08
Cc1ccc(C)c(OCc2nc(-c3cccs3)no2)c1
    -0.86, 2.5
CCOC(=O)c1c(S(=O)(=O)N2CCC(CN3CCc4ccccc4C3)CC2)c(C)n(C)c1C
    nt, 1
O=C(Nc1ccccc1)Nc1nc(=S)ss1
    -1.6, nt
Cc1ccc(CN(C(=O)c2cc(=O)c3cc(Cl)ccc3o2)C2CCS(=O)(=O)C2)cc1 (stereo not drawn)
    -0.43, 0.69

High-throughput results (PubChem BioAssay)
